Source: PubChem BioAssay
HCMV UL50-53 inh – inhibitors of HCMV UL50-UL53 interaction, biochemical, HTRF. AID 1918969, 2023. 0.15% of 190,000 active. inhibition, % (concentration not given with the values). normalized percent inhibition. HCMV UL50-UL53 nuclear egress complex (human cytomegalovirus);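 active means both replicates at 50% or more, plus weaker picks with an unusually low signal ratio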;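 further: stock transfer was 100 nL into about 20 µL; 0% = negative control wells and 100% = wells with untagged competitor protein; inactives centre near -12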
Sa growth 42C – S. aureus growth inhibition at 42 and 30 °C, primary screen, LtaS inhibitor project, RN4220, two temperatures; 0.53% of 170,000 active; OD600, 20 h, 42 °C; stronger effect = lower value; AID 720641, 2013; relative growth, % (no concentration beside the values);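 active means growth at 42 °C up to 50% and 20 or more points under that at 30 °C, or under 10% at both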;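 further: 300 nL library stock went into each well; scaled to the means of positive and negative controls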
GIV Gai3 FP – inhibitors of GIV peptide binding to Galpha-i3, primary screen, biochemical, fluorescence polarization, FITC-GIV GBA peptide, rat Galphai3; 90 min; stronger effect = lower value; scaled: aluminum fluoride 0%, vehicle 100%; Guanine nucleotide-binding protein G(i) subunit alpha-3 (Rattus norvegicus), P08753; AID 1224905, 2016; 0.42% of 210,000 active; percent of control (FP), % (test concentration not listed);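 active means replicate mean at 85% of control or lower, very high polarization wells dropped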;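 further: wells of about 15 µL received 100 nL stock; the first replicate is given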
Target sequence (P08753 whole entry, looked up): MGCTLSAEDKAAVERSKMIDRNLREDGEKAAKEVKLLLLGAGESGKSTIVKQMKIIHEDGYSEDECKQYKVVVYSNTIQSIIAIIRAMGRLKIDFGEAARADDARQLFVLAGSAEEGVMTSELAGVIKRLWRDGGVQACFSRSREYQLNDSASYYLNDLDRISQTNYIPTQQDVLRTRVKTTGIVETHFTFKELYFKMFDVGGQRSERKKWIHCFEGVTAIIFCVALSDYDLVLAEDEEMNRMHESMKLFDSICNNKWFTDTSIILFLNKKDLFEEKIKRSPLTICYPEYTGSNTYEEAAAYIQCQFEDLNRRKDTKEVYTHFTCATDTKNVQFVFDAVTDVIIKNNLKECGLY
Sa growth 42C second temp – second read-out of Sa growth 42C, no call of its own (marks repeat the call); relative growth, %; measured here: growth at 30 °C;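 optical density after 20 h as mean of two plates; 100% = untreated growth and lower means inhibition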
The depositor's hits bear a star; & = joins results of further samples.

For CCOc1ccccc1NC(=O)C(=O)c1cc(C)n(-c2ccc(F)cc2)c1C the results were HCMV UL50-53 inh 14, Sa growth 42C 94, GIV Gai3 FP 106 and Sa growth 42C second temp 89.
`CC(C)NC(=O)COc1cccc2ccccc12` gave HCMV UL50-53 inh -26, Sa growth 42C 94 and Sa growth 42C second temp 93.
CCN(Cc1ccccc1)C(=O)c1sc2nc3n(c(=O)c2c1C)CCCC3 was read as HCMV UL50-53 inh -20, Sa growth 42C 99, GIV Gai3 FP 101 and Sa growth 42C second temp 86.
S=C(Nc1ccccn1)NC1CC2CCC1C2 (stereo not given) was read as HCMV UL50-53 inh 16, Sa growth 42C 56 and Sa growth 42C second temp 80.
Screening CSc1ccc(/C=N/NC(=O)C2CC2)cc1 returned HCMV UL50-53 inh -62, Sa growth 42C 100, GIV Gai3 FP 108 and Sa growth 42C second temp 101.
Screening O=C(/C=C/c1cccc(F)c1)NCCCn1ccnc1 returned HCMV UL50-53 inh -55, Sa growth 42C 95 and Sa growth 42C second temp 83.
For CN(C)c1ccc(-c2noc(-c3ccc(Cl)cc3)n2)cc1 the results were HCMV UL50-53 inh -19 and GIV Gai3 FP 112.
`CCc1ccc(OCC(=O)N(Cc2ccc(Cl)cc2)C2CCS(=O)(=O)C2)cc1` (stereo not given) gave HCMV UL50-53 inh 2, Sa growth 42C 101, GIV Gai3 FP 101 and Sa growth 42C second temp 86.
For Cc1nc(-c2ccccc2)sc1C(=O)NCC1CCCO1 (stereo not given) the results were HCMV UL50-53 inh -62, Sa growth 42C 81, GIV Gai3 FP 99 and Sa growth 42C second temp 83.
`CCNc1nnc(-c2ccccc2OC)s1` gave HCMV UL50-53 inh -14, Sa growth 42C 97 and Sa growth 42C second temp 91.
Screening CC(=O)NCc1ccc(C2CCCCC2)cc1 returned HCMV UL50-53 inh -32, Sa growth 42C 74 and Sa growth 42C second temp 82.
Screening Cc1ccc(N2CCN(S(=O)(=O)c3ccc4oc(=O)c5ncn(C)c5c4c3)CC2)c(C)c1 returned Sa growth 42C 91, GIV Gai3 FP 96 and Sa growth 42C second temp 95.
CCOC(=O)C1CCCN(C(=O)c2cccc(NC(=O)C(CC)CC)c2)C1 (stereo not given) was read as HCMV UL50-53 inh -11, Sa growth 42C 98, GIV Gai3 FP 104 and Sa growth 42C second temp 97.
COc1cc(Cl)c(C)cc1NCC(=O)Nc1cccnc1Cl was read as HCMV UL50-53 inh -26, Sa growth 42C 104 and Sa growth 42C second temp 88.
COc1ccc(CCNC(=O)CCCCn2c(=O)c3ccccc3n(Cc3ccc(F)cc3Cl)c2=O)cc1OC was read as HCMV UL50-53 inh -6, Sa growth 42C 101, GIV Gai3 FP 101 and Sa growth 42C second temp 87.
Screening CNc1nnc(Cl)c2ccccc12 returned HCMV UL50-53 inh -23, Sa growth 42C 101, GIV Gai3 FP 100 and Sa growth 42C second temp 73.
NC(=O)C1CCCN1C(=O)CCC(=O)O (stereo not given) was read as HCMV UL50-53 inh 5, Sa growth 42C 102, GIV Gai3 FP 98 and Sa growth 42C second temp 91.
CCCCC1(C)OC(=O)C(=Cc2ccc(F)cc2)C(=O)O1 (stereo not given) was read as Sa growth 42C 109, GIV Gai3 FP 102 and Sa growth 42C second temp 87.
Screening c1cc(-c2nn[nH]n2)cs1 returned HCMV UL50-53 inh -2, Sa growth 42C 103, GIV Gai3 FP 98 and Sa growth 42C second temp 84.
For COc1ccc(-c2cc(C(=O)N3CCN(S(=O)(=O)c4ccc(F)c(C)c4)CC3)[nH]n2)cc1 the results were HCMV UL50-53 inh -5 and GIV Gai3 FP 106.

The closing two records of the part above are carried over, then new ones follow.
Screening c1cc(-c2nn[nH]n2)cs1 returned HCMV UL50-53 inh -2, Sa growth 42C 103, GIV Gai3 FP 98 and Sa growth 42C second temp 84.
For COc1ccc(-c2cc(C(=O)N3CCN(S(=O)(=O)c4ccc(F)c(C)c4)CC3)[nH]n2)cc1 the results were HCMV UL50-53 inh -5 and GIV Gai3 FP 106.
COc1c(Cl)cnn(-c2cccc(C)c2)c1=O was read as HCMV UL50-53 inh -11, Sa growth 42C 96, GIV Gai3 FP 100 and Sa growth 42C second temp 105.
Screening COc1ccc(CNC(=O)CSc2nnc(C)c3c(C)n(-c4ccccc4)nc23)c(OC)c1 returned Sa growth 42C 87, GIV Gai3 FP 105 and Sa growth 42C second temp 93.
`O=C(COc1ccc(F)cc1)NCCCn1ccnc1` gave HCMV UL50-53 inh 10, Sa growth 42C 105, GIV Gai3 FP 107 and Sa growth 42C second temp 94.
For Cc1cc(C)n2nc(C(=O)Nc3cccnc3)cc2n1 the results were HCMV UL50-53 inh -37, Sa growth 42C 110, GIV Gai3 FP 116 and Sa growth 42C second temp 99.
For Brc1ccc(CSc2nnc(-c3ccc4c(c3)OCO4)o2)cc1 the results were HCMV UL50-53 inh -13, Sa growth 42C 92 and Sa growth 42C second temp 90.
COc1cc(C(=O)Nc2ccc3oc(-c4ccc(C)cc4)nc3c2)cc(OC)c1OC was read as HCMV UL50-53 inh 10 and GIV Gai3 FP 103.
`O=C(Nc1ccc(F)cc1)c1nc(SCc2ccccc2F)ncc1Cl` gave HCMV UL50-53 inh 14, Sa growth 42C 100, GIV Gai3 FP 104 and Sa growth 42C second temp 106.
Screening CCN(CC)C(=O)CSc1nc(N)c(C(=O)Nc2ccc(OC)cc2)s1 returned HCMV UL50-53 inh -99, Sa growth 42C 99, GIV Gai3 FP 104 and Sa growth 42C second temp 89.
`O=C(NCCc1ccccc1)C(=O)NCC(c1cccnc1)N1CCN(c2ccccc2F)CC1` (stereo not given) gave HCMV UL50-53 inh -15, Sa growth 42C 120, GIV Gai3 FP 103 and Sa growth 42C second temp 68.
`Oc1ccc(Br)cc1C1CC(c2ccccc2)=NC(c2ccco2)N1` (stereo not given) gave HCMV UL50-53 inh 4, Sa growth 42C 2.5*, GIV Gai3 FP 107 and Sa growth 42C second temp 1.9*.
COc1cc(C(=O)NCC(c2ccc(N(C)C)cc2)N2CCCC2)cc(OC)c1OC (stereo not given) was read as Sa growth 42C 92, GIV Gai3 FP 102 and Sa growth 42C second temp 88.
Screening O=c1[nH]c(Nc2ccc3c(c2)OCO3)nnc1Cc1ccc(F)cc1 returned HCMV UL50-53 inh -50, Sa growth 42C 83, GIV Gai3 FP 105 and Sa growth 42C second temp 92.
For Nc1ccc(C(=O)NCC2CCCN3CCCCC23)cc1 (stereo not given) the results were HCMV UL50-53 inh -7, Sa growth 42C 101 and Sa growth 42C second temp 96.
Screening COC(=O)NC(=O)c1ccc(Cl)cc1 returned HCMV UL50-53 inh -8, Sa growth 42C 100, GIV Gai3 FP 102 and Sa growth 42C second temp 94.
For Cc1nc2c(C(=O)NCCCN3CCCC3)cnn2c(C)c1Cc1ccccc1 the results were HCMV UL50-53 inh 2, Sa growth 42C 96, GIV Gai3 FP 108 and Sa growth 42C second temp 94.
`Cc1nc2ccc(S(=O)(=O)NC(CC(C)C)C(=O)NC3CCCCCC3)cc2s1` (stereo not given) gave Sa growth 42C 96, GIV Gai3 FP 101 and Sa growth 42C second temp 83.
For COc1ccc(N2C(=O)/C(=C\c3ccco3)N=C2SCC(N)=O)cc1Cl the results were HCMV UL50-53 inh -34, Sa growth 42C 114 and Sa growth 42C second temp 79.
O=C1/C(=C/NCc2ccco2)S(=O)(=O)N(Cc2ccccc2)c2ccsc21 was read as HCMV UL50-53 inh -15, Sa growth 42C 93, GIV Gai3 FP 102 and Sa growth 42C second temp 89.
CN(C)S(=O)(=O)c1cc(C(=O)NCc2ccncc2)c(Cl)cc1Cl was read as HCMV UL50-53 inh -6, Sa growth 42C 120 and Sa growth 42C second temp 78.
Screening Cc1ccc2oc3c(c(=O)c2c1)C(c1ccc(O)cc1)N(c1nc(C)c(C)s1)C3=O (stereo not given) returned HCMV UL50-53 inh 8, Sa growth 42C 93, GIV Gai3 FP 99 and Sa growth 42C second temp 100.

In the list so far, 5 have an aryl thioether with sulfur outside any ring.
Screening CSc1ccc(/C=N/NC(=O)C2CC2)cc1 returned HCMV UL50-53 inh -62, Sa growth 42C 100, GIV Gai3 FP 108 and Sa growth 42C second temp 101.
Screening COc1ccc(CNC(=O)CSc2nnc(C)c3c(C)n(-c4ccccc4)nc23)c(OC)c1 returned Sa growth 42C 87, GIV Gai3 FP 105 and Sa growth 42C second temp 93.
For Brc1ccc(CSc2nnc(-c3ccc4c(c3)OCO4)o2)cc1 the results were HCMV UL50-53 inh -13, Sa growth 42C 92 and Sa growth 42C second temp 90.
`O=C(Nc1ccc(F)cc1)c1nc(SCc2ccccc2F)ncc1Cl` gave HCMV UL50-53 inh 14, Sa growth 42C 100, GIV Gai3 FP 104 and Sa growth 42C second temp 106.
Screening CCN(CC)C(=O)CSc1nc(N)c(C(=O)Nc2ccc(OC)cc2)s1 returned HCMV UL50-53 inh -99, Sa growth 42C 99, GIV Gai3 FP 104 and Sa growth 42C second temp 89.

The list continues.
O=S1(=O)N=CNc2ccc(S(=O)(=O)NCc3ccccc3)cc21 was read as HCMV UL50-53 inh -6, Sa growth 42C 88, GIV Gai3 FP 91 and Sa growth 42C second temp 82.
CCC(=O)NC1CC2C(=O)Nc3c(C)cccc3C2OC1=O (stereo not given) was read as HCMV UL50-53 inh 0, Sa growth 42C 84 and Sa growth 42C second temp 92.
O=C(NC1CCCC1)c1cccc(Nc2ccnc(-c3ccccc3)n2)c1 was read as HCMV UL50-53 inh -14 and GIV Gai3 FP 105.
`CCOc1ccc(-c2nonc2NC(=O)COc2ccc(C)c(C)c2)cc1C` gave HCMV UL50-53 inh -21 and GIV Gai3 FP 101.
Screening CC(C)CC1NC(=O)N(C)C1=O (stereo not given) returned HCMV UL50-53 inh -10, Sa growth 42C 101, GIV Gai3 FP 99 and Sa growth 42C second temp 91.
For Cc1ccc(-c2noc(-c3c(C)noc3C)n2)cc1 the results were HCMV UL50-53 inh -2, Sa growth 42C 106, GIV Gai3 FP 105 and Sa growth 42C second temp 67.
CCCn1c2ccccc2c2cnn(CC(=O)N(C)Cc3ccccc3)c(=O)c21 was read as HCMV UL50-53 inh -17, Sa growth 42C 93, GIV Gai3 FP 106 and Sa growth 42C second temp 75.
For CCN(C(=O)CSc1nc2ccccc2nc1Cc1cccc(OC)c1)c1cccc(C)c1 the results were Sa growth 42C 97, GIV Gai3 FP 97 and Sa growth 42C second temp 96.
For COc1cc(C(=O)N2CCN(CCc3ccncc3)CC2)cc(OC)c1OC the results were HCMV UL50-53 inh -8, Sa growth 42C 102, GIV Gai3 FP 102 and Sa growth 42C second temp 93.
Cc1cccc(N2CCN(C(=O)Cn3ncc4c3-c3ccccc3OC4)CC2)c1C was read as HCMV UL50-53 inh -41, Sa growth 42C 96, GIV Gai3 FP 106 and Sa growth 42C second temp 88.
`CCOc1ccc(OCCN2C(=O)NC(Cc3c[nH]c4ccccc34)C2=O)cc1` (stereo not given) gave HCMV UL50-53 inh -4, Sa growth 42C 116 and Sa growth 42C second temp 89.
`O=C(c1ccccc1)N(Cc1ccco1)CC(O)Cn1c2ccccc2c2ccccc21` (stereo not given) gave HCMV UL50-53 inh -14, Sa growth 42C 89, GIV Gai3 FP 105 and Sa growth 42C second temp 51.
For COc1ccc(CC(=O)n2[nH]c(=O)c3ccccc3c2=O)cc1OC the results were HCMV UL50-53 inh -38, Sa growth 42C 99, GIV Gai3 FP 105 and Sa growth 42C second temp 92.
Screening COc1ccc(N2CC(NC(=O)NCC3CCCO3)CC2=O)cc1OC (stereo not given) returned HCMV UL50-53 inh 21, Sa growth 42C 114, GIV Gai3 FP 106 and Sa growth 42C second temp 99.
CCN(CC(=O)NCc1cccs1)c1ccc(S(=O)(=O)N2CCCC2)cn1 was read as HCMV UL50-53 inh -13, Sa growth 42C 104 and Sa growth 42C second temp 101.
CS(=O)(=O)Nc1ccc(Br)cc1 was read as HCMV UL50-53 inh -9, Sa growth 42C 105 and Sa growth 42C second temp 86.
Screening Cc1coc2c(C)c3oc(=O)c(CCC(=O)NCCc4ccccc4F)c(C)c3cc12 returned HCMV UL50-53 inh -9, Sa growth 42C 107, GIV Gai3 FP 101 and Sa growth 42C second temp 83.
Nc1ccnn1Cc1ccccn1 was read as HCMV UL50-53 inh -37, Sa growth 42C 89 and Sa growth 42C second temp 88.
Screening COC(=O)c1cc2oc3ccccc3c2n1CC(=O)Nc1ccc(OC)c(OC)c1OC returned HCMV UL50-53 inh -15, Sa growth 42C 123, GIV Gai3 FP 99 and Sa growth 42C second temp 82.
Screening Cc1sc2nc(CSC(C)C(=O)OCn3nnc4ccccc4c3=O)[nH]c(=O)c2c1C (stereo not given) returned HCMV UL50-53 inh -31, Sa growth 42C 95 and Sa growth 42C second temp 85.
For Cc1ccc(-n2c(-c3cnccc3C(F)(F)F)noc2=O)c(C)c1 the results were HCMV UL50-53 inh -14, Sa growth 42C 109, GIV Gai3 FP 110 and Sa growth 42C second temp 96.
CCCc1cc(=O)[nH]c(-n2nc(C)cc2NC(=O)c2c(F)cccc2F)n1 was read as HCMV UL50-53 inh 3 and GIV Gai3 FP 99.
Cc1csc(SCCCn2c(=O)[nH]c3ccccc32)n1 was read as HCMV UL50-53 inh 5, Sa growth 42C 87 and Sa growth 42C second temp 73.
For Cc1ccc(N(C)C(=O)c2cc(S(=O)(=O)N3CCCC3)cn2C)cc1 the results were Sa growth 42C 111, GIV Gai3 FP 98 and Sa growth 42C second temp 82.
Screening Cc1ccc2nc(NC(=O)/C=C/c3ccccc3)sc2c1 returned HCMV UL50-53 inh 0&-12, Sa growth 42C 112 and Sa growth 42C second temp 91.
